# Mtb bLac sens – beta-lactam sensitization of Mtb H37Rv, H37Rv. M. tuberculosis H37Rv growth with meropenem, percent inhibition; hits of this screen are not shown here. inhibition, % at 25 µM. actives 0.27% (n = 330,000). AID 434955, 2010;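 active means about 74% or more and at least 40 points above the plate without the antibiotic, then above 30% in a dose series; inconclusive means first-round hits that could not be retested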;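 further: growth measured after seven days incubation then overnight dye step; 0% = bacteria only wells and 100% = bacteria with antibiotic; twin plates without the antibiotic show which effects depend on it; some results filed as inactive read as strong as hits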
# YopH PTP inh – YopH tyrosine phosphatase inhibitors, primary screen, biochemical, fluorescence Ex485/Em525. AID 898, 2007. actives 0.16% (n = 140,000). YopH tyrosine phosphatase [Yersinia enterocolitica]. inhibition, %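 (about 10 µM by stock and volumes)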;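 active means inhibition of 50% or more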;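 further: controls were vehicle for no effect and minimum signal wells for full effect; inactives centre near -20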
# Mtb growth – M. tuberculosis H37Rv growth inhibitors, H37Rv strain (AID 1626) | M. tuberculosis H37Rv growth inhibition; higher % means a stronger effect | actives 0.95% (n = 220,000) | inhibition, % at 10 µM; hits with a dose series show IC50 in µM;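 active means confirmed in a dose series; inconclusive means inhibition above 80% but not taken into the dose series; inactive means below 80% or under 30% at every dose of the series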;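 further: bacteria incubated seven days before Alamar blue readout; 0% = bacteria only wells and 100% = bacteria with antibiotic wells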
# RecA intein inh – Mtb RecA intein splicing inhibitors, primary screen, biochemical, fluorescence, HTS. cell-free RecA intein splicing. inhibition, %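 (about 9 µM by stock and volumes)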. actives 0.75% (n = 290,000). AID 2221, 2009; in the data active means inhibition above about 30%; inconclusive means no clear call, values can overlap the other calls;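 further: 0% = vehicle wells and 100% = reference inhibitor control wells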
# Target sequence (P9WHJ3 whole entry, looked up): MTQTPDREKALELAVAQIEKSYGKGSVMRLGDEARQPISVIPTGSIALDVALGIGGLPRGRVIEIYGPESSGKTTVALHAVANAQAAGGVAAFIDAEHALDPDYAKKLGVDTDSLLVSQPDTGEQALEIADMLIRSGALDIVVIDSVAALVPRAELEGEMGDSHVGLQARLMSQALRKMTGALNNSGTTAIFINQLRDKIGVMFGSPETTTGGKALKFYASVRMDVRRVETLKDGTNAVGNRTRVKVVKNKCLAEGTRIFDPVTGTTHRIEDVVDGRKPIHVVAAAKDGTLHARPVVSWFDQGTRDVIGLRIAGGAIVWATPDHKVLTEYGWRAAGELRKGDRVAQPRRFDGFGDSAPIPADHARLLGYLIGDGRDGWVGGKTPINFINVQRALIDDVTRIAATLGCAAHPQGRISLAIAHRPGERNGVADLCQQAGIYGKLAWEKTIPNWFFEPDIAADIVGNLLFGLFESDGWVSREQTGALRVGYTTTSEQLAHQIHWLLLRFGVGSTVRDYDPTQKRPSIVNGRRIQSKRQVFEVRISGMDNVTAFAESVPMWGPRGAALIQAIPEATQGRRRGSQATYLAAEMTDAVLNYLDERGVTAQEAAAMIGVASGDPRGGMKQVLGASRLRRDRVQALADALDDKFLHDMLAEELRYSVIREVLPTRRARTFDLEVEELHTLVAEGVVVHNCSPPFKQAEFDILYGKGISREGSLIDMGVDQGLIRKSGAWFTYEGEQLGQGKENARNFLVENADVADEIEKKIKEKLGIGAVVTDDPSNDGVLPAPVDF
# Arbovirus anti – antivirals against arbovirus infection, primary screen, cell-based, full library, 10K replicate subset; arbovirus infection cell-based antiviral screen; actives 0.37% (n = 200,000); inhibition, % at 10 µM; AID 1251, 2008;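 active means inhibition from about 30%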;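 further: bluetongue infection of BSR cells; cell survival read as ATP light after 72 h; 0% = infected wells without compound and 100% = uninfected wells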
# Arbovirus anti repeat – further read-out of Arbovirus anti, marked with its call; inhibition, %; measured here: 10K subset replicate screen; many hits read low in the repeat;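 first of two repeat runs on a subset; 0% = infected and 100% = uninfected wells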
# Numbers without * were called inactive; ? = inconclusive; . = not tested or not shown.
SMILES,Mtb bLac sens,YopH PTP inh,Mtb growth,RecA intein inh,Arbovirus anti,others
CC(=O)Nc1ccc(NC(=O)c2ccc([N+](=O)[O-])cc2Cl)cc1,15,.,-1%,-1.5,-2,
CCN(CC)CCCNC(=O)c1cc(Nc2ccc(OC)cc2)nc2ccccc12,-5,.,.,-0.5,.,
O=C(COc1ccc(Cl)cc1)NNC(=S)NCc1ccccc1,3,.,.,4.9,.,
CCOc1ccc(OCC)c(NC(=O)Nc2ccc3c(c2)N(C)C(=O)CS3)c1,8,-14,2%,.,-15,
CCN(C(=O)Cn1c(=O)oc2cc(S(=O)(=O)N3CCCC3)ccc21)c1ccc(OC)cc1,3,.,.,-1.1,.,
CCCCn1c(=O)c(Cc2ccccc2)c(O)c2ccccc21,29,-40,.,-1.1,-8,
COc1cccc(N(C(=O)c2nc3nccc(C)n3n2)c2nc3ccccc3s2)c1,32,-21,7%,1.0,-7,
Cn1ncc([N+](=O)[O-])c1C(=O)NCc1ccccc1,4,.,6%,-0.5,.,
N#Cc1cc2c(nc1SCC(O)CS(=O)(=O)Cc1ccccc1)CCCC2 (centres undefined),11,1,1%,2.4,-10,
O=C(c1ccccc1Oc1ccc(C(F)(F)F)cc1[N+](=O)[O-])N1CCOCC1,3,-23,1%,-3.9,-4,
COc1ccccc1C(=O)Nc1nc2ccccc2s1,6,.,.,-6.5,.,
CCCN1CCN(CCCNC(=O)C(CC)n2nc(C)n3c(cc4occc43)c2=O)CC1 (centres undefined),0,.,.,1.3,.,
CC(=O)Nc1ccc(C(=O)OCC(=O)N(C)C2CCCCC2)cc1,4,.,3%,0.5,5,
N#CCSc1nc(Nc2ccc3c(c2)OCO3)c2ccccc2n1,-3,-59,-7%,-9.1,-7,
COc1ccc(NC(=O)Cn2nnc(-c3ccccc3F)n2)cc1Cl,-3,15,-5%,1.4,-6,
CC(=O)c1cn(CC(=O)Nc2ccccc2)c2ccccc12,-6,-18,-4%,1.6,3,
CN(/N=C/c1ccc(Cl)cc1Cl)c1ncc(Cl)cc1C(F)(F)F,-5,.,-6%,1.5,.,
CN(C)c1ccc(N=Nc2ccccc2Br)cc1,61,.,.,14,.,
CC(/C=N/n1c(-c2cccnc2)n[nH]c1=S)=C\c1ccccc1,-11,-28,0%,0.2,4,
O=C(NN=C1CCCCCCCCCCC1)c1ccncc1,98,.,?,-1.8,-1,
Cc1cc(Cl)ccc1OCC(=O)Nc1ccccc1NS(=O)(=O)c1cccs1,-3,.,1%,-0.5,.,
CCCCCCC1/C(=N/O)CCC1C(=O)OC (centres undefined),-9,-38,7%,1.8,3,
O=C(Nc1ccc2c(c1)OCCO2)c1cccnc1Oc1ccccc1,3,.,-8%,7.0,.,
CC(NS(=O)(=O)c1ccc(Cl)cc1)C(=O)NCCC1=CCCCC1 (centres undefined),-3,.,6%,0.3,6,
CCCS(=O)(=O)C(=C1Nc2ccccc2N1)S(=O)(=O)CCC,-2,17,3%,-0.8,2,
Fc1ccc(CNC2CCN(Cc3ccccc3)CC2)cc1,-9,.,.,-0.4,.,
CSc1nsc(SC)c1NC(=O)OC1CCCCC1,-3,-26,6%,8.9,1,
S=c1c2c(nc3nc[nH]n13)CCC2,99,.,.,8.9,.,
Cn1nc(C(F)(F)F)c(-c2ccccc2)c1NC(=O)CCC(=O)O,-7,.,1%,-2.1,.,
COc1cccc(C(=O)N(Cc2cccs2)C2CCS(=O)(=O)C2)c1 (centres undefined),-5,.,-2%,0.6,.,
COc1ccc(C(C#N)c2nc3ccccc3nc2Cl)cc1 (centres undefined),3,.,.,0.6,.,
COc1ccc(NC(=O)N2CCC(c3ccccc3)C2)c(OC)c1 (centres undefined),-1,-44,5%,1.0,-6,Arbovirus anti repeat=-9
COc1cccc(C(=O)NC2CCCc3c2cnn3-c2ccc(C)c(C)c2)c1OC (centres undefined),1,.,.,4.1,.,
O=C(COc1ccccc1F)Nc1cc(S(=O)(=O)N2CCOCC2)ccc1N1CCOCC1,4,.,-6%,-1.3,-4,
CC1CC(C)(C)NC(=S)N1CCC(=O)N1CCN(Cc2ccccc2)CC1 (centres undefined),12,.,-4%,-0.9,6,
O=c1cc(Cl)[nH]c(=O)n1Cc1ccccc1,-7,.,.,-5.0,.,
CCCC(=O)Nc1cc(C(=O)N2CCC3(CC2)OCCO3)ccc1S(=O)(=O)c1ccc(C)cc1,-2,-110,-8%,0.3,-1,
O=C(Nc1ccc(N2CCOCC2)cc1)c1cccc(-n2cnnc2)c1,-14,.,.,2.1,.,
CN(C)c1ccc(NC(=S)N(CCc2ccccc2)C2CC(=O)N(c3c(Cl)cccc3Cl)C2=O)cc1 (centres undefined),-2,-33,7%,1.2,-1,
CSCCC(NC(=O)OC(C)(C)C)C(=O)Oc1ccc2c(=O)c(-c3ccc4c(c3)OCCO4)coc2c1 (centres undefined),5,-27,2%,13,4,
CCOC(=O)C1=C(COC(=O)c2ccc(OC(C)C)cc2)NC(=O)NC1C (centres undefined),-4,.,.,-1.4,.,
O=C(NC1CCN(C(=O)NCc2ccccc2)CC1)c1ccc(F)cc1,-1,.,.,-2.8,.,
CCOC(=O)Cn1nc(C)n(-c2cccc(Cl)c2)c1=O,-10,.,-6%,-4.6,0,
CN1C(C(=O)Nc2ccc(F)cc2F)=CC(c2ccco2)=NS1(=O)=O,?,.,.,-28,.,
CCc1nc(NCCC(C)C)c2nnn(Cc3ccccc3)c2n1,2,.,.,-5.4,.,

# A stretch of the results above:
SMILES,Mtb bLac sens,YopH PTP inh,Mtb growth,RecA intein inh,Arbovirus anti,others
COc1ccc(C(C#N)c2nc3ccccc3nc2Cl)cc1 (centres undefined),3,.,.,0.6,.,
COc1ccc(NC(=O)N2CCC(c3ccccc3)C2)c(OC)c1 (centres undefined),-1,-44,5%,1.0,-6,Arbovirus anti repeat=-9
COc1cccc(C(=O)NC2CCCc3c2cnn3-c2ccc(C)c(C)c2)c1OC (centres undefined),1,.,.,4.1,.,
O=C(COc1ccccc1F)Nc1cc(S(=O)(=O)N2CCOCC2)ccc1N1CCOCC1,4,.,-6%,-1.3,-4,
CC1CC(C)(C)NC(=S)N1CCC(=O)N1CCN(Cc2ccccc2)CC1 (centres undefined),12,.,-4%,-0.9,6,
O=c1cc(Cl)[nH]c(=O)n1Cc1ccccc1,-7,.,.,-5.0,.,
CCCC(=O)Nc1cc(C(=O)N2CCC3(CC2)OCCO3)ccc1S(=O)(=O)c1ccc(C)cc1,-2,-110,-8%,0.3,-1,

# Next section:
SMILES,Mtb bLac sens,YopH PTP inh,Mtb growth,RecA intein inh,Arbovirus anti,others
Cc1ccc(S(=O)(=O)N(CC2CO2)c2ccccc2[N+](=O)[O-])cc1 (centres undefined),-9,.,2%,5.3,14,
CCn1c(SCC(=O)NCC(=O)Nc2ccc(F)cc2)nnc1-c1ccncc1,-3,12,-8%,-0.5,-1,
Cc1nn(-c2ccccc2)c2sc(C(=O)NNC(=O)COc3ccccc3)cc12,3,-8,3%,0.1,-6,
COc1ccccc1-n1c(N)c(C(N)=O)sc1=S,-6,-24,-4%,-3.7,0,
CCn1c(COc2ccc(C)cc2)nnc1SCC(=O)NCc1ccco1,-9,.,-3%,3.8,-1,
COc1ccc(OC)c(NC(=O)CC(NCCC2=CCCCC2)C(=O)O)c1 (centres undefined),.,-7,-9%,-9.9,5,
Cc1c(C)c(C)c(S(=O)(=O)NCCc2ccncc2)c(C)c1C,-1,.,.,-2.8,.,
COc1ccc(/C=C(\NC(=O)c2ccc([N+](=O)[O-])cc2)C(=O)NCCCn2ccnc2)cc1,-1,.,.,-0.3,.,
N=c1c(S(=O)(=O)c2ccc(Br)cc2)cc2c(=O)n3ccccc3nc2n1Cc1ccco1,3,.,.,0.2,.,
COc1cccc(CC(=O)N2CCC(n3nccc3NC(=O)C3CC3)CC2)c1,-4,.,.,-2.0,.,
COc1ccc(C2Oc3ccccc3N2C(C)=O)cc1 (centres undefined),-20,-36,-2%,.,-3,
Cn1cc(CN2CCC(C(O)c3cccs3)CC2)c(-c2cccc(Cl)c2)n1 (centres undefined),6,.,-7%,-2.4,-17,
CN(CC1COc2ccccc2O1)c1nc(-c2cccnc2)nc2ccccc12 (centres undefined),82,-38,2%,2.4,-14,
COc1ccccc1N1CN(Cc2ccccc2)CNC1=S,-7,.,6%,1.2,.,
COc1ccc(OC)c(S(=O)(=O)Nc2ccccc2C(F)(F)F)c1,-6,-36,4%,0.6,0,
COc1ccc(NS(=O)(=O)c2cccc(C(=O)NCCCN3CCCC3=O)c2)cc1,1,.,.,0.4,.,
CN(C1CCCC1)C1CCN(C(=O)CNC(=O)/C=C/c2cccc(C(F)(F)F)c2)CC1,-9,.,3%,-0.7,-16,
Cc1ccccc1C1=NC(C(F)(F)F)(C(F)(F)F)c2c(n(-c3ccc(F)cc3)c(=O)[nH]c2=O)N1,4,-18,0%,-0.9,2,
COc1ccc(C(=O)COC(=O)C(CC(C)C)N2C(=O)c3ccccc3C2=O)cc1 (centres undefined),?,12,-2%,3.4,2,
CCN1CCCC1CNC(=O)c1cc2c(=O)n(C)c3ccccc3c2n1C (centres undefined),?,-29,17%,-1.7,-4,Arbovirus anti repeat=0
CCCCn1c(N)c(N(CCOC)C(=O)COC(=O)c2cc(CCC)c(C)s2)c(=O)[nH]c1=O,-5,.,.,-0.5,.,
C=CCNC(=O)CSc1ccc(Cl)cc1,-9,-10,0%,-0.4,7,
COc1ccc(C2=[N+](C)CCn3cccc32)c(OC)c1,7,10,13%,1.3,5,
Cc1nn2c(NCCCn3ccnc3)cc(C(C)C)nc2c1-c1ccccc1,97,.,7.7µM*,7.9,.,
c1cc2c(cc1C1CCCCC1)c1c3n2CCCNC3CCC1 (centres undefined),100,-78,6.1µM*,7.1,-38,
COc1ccc2c(c1)C(c1cccs1)=NNC(c1ccncc1)=N2,-5,.,2%,4.7,3,
CC(NC(=O)c1ccccc1F)c1nnc(SCC(=O)Nc2nnc(C3CC3)s2)n1C (centres undefined),-15,.,.,1.3,.,
Cc1ccc(N2C(=O)C(Cl)=C(N3CCCCCC3)C2=O)c(C)c1,13,.,.,7.5,.,
CC(C)Oc1cc(NC(=O)CSCC(=O)Nc2cccc(C(F)(F)F)c2)c(Cl)cc1Cl,-1,-22,5%,5.0,-25,
O=C(COC(=O)C1=COCCO1)Nc1ncc(Cl)cc1Cl,39,.,.,0.2,.,
O=C(NCCN1CCN(Cc2ccccc2)CC1)c1cc2c(=O)[nH]c3ccccc3c2s1,-7,-7,4%,1.2,-33,
CN(C)/C=C/C(=O)c1cnc(-c2ccccc2)s1,-5,.,-5%,2.2,13,
CCC(=O)N(C)CCc1cc2c(c(OC)c1/C=N/NC(=O)c1ccccc1O)OCO2,7,-9,11%,-0.4,-5,
CN1CCN(CCCNC(=O)Cn2ncc3c4ccccc4n(C)c3c2=O)CC1,4,14,2%,-1.8,12,Arbovirus anti repeat=1
CCOC(=O)c1nnc(-c2ccc(C)cc2)nc1Sc1ccccc1Cl,52,-30,24%,22,-16,
CCOC(=O)C1CCN(C(=O)CN(c2cc(OC)ccc2OC)S(=O)(=O)c2ccccc2)CC1,4,1,2%,-1.7,-1,
Cc1ccc(C)c(OCC(=O)O/N=C(\N)c2cccnc2)c1,4,.,7%,1.7,.,
COc1ccc(C2c3cc(OC)c(OC)cc3CCN2C(=O)c2ccccc2)cc1OC (centres undefined),4,.,.,2.9,.,
O=C(NCC1COc2ccccc2O1)c1cc2ccccc2o1 (centres undefined),-3,-32,2%,1.6,-1,
C/C(CC(=O)Nc1cccc(C(F)(F)F)c1)=N\NC(=O)C1CCCCC1,-1,.,4%,2.1,10,
COc1ccc(/C=C/C(=O)C2(O)CCCCC2)cc1OC,10,.,2%,-1.4,1,
Cc1ccc(C(C)C)c(OCCN(C)C)c1,0,-14,5%,-1.6,13,
C=CCn1c(SCC(=O)N2CCCC2)nc2cc(C(=O)NCC3CCCO3)ccc2c1=O (centres undefined),-4,-39,-2%,-1.2,5,
CCc1csc(CCNC(=O)C2CCC(=O)N(Cc3ccccc3F)C2)n1 (centres undefined),-1,.,.,-1.1,.,
COc1cccc(-c2nc(SC)nc3sc(C(=O)NC(C)(C)C)c(N)c23)c1,8,.,-2%,-2.5,.,
COc1ccc(NC(=O)NCCN2C(=O)C3C4C=CC(C4)C3C2=O)cc1 (centres undefined),?,-14,-1%,0.6,1,Arbovirus anti repeat=4
COC(=O)c1ccc(Cn2nnc3c(=O)[nH]c(C4CCCN(S(=O)(=O)c5ccccc5Cl)C4)nc32)cc1 (centres undefined),6,.,.,3.0,.,

# Assay outcomes from PubChem BioAssay.

# This is a subset; rates above refer to the full screens.
